MgrA-DNA mod = modulators of Staphylococcus aureus MgrA DNA binding | AID 602314 | inhibition, %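 (about 10 µg/mL by stock and volumes)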 | hit rate 0.13% among 84,000 | fluorescence polarization;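 active = above 50% in either of two replicates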;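 note: 0% = protein plus DNA without compound and 100% = DNA alone without protein; higher means less MgrA bound to DNA so lower polarization; one replicate is shown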
Sa helicase inh = S. aureus DNA helicase inhibition; inhibition, %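 (tested at about 80 µM)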; purified S. aureus helicase, fluorescence unwinding assay; about half of the hits fall short of the stated cut; AID 485395; hit rate 0.05% among 120,000;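 active = both duplicates at 50% or more, or one of them with a favoured structure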;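 note: 0% = mean of negative control wells and 100% = mean of positive control wells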
* hit, by the source's call; · = not tested or not shown. A portion of the library; rates above refer to the full screens.

The opening six entries (preview)
SMILES	MgrA-DNA mod	Sa helicase inh
CC1CCC(C(=O)NC(Cc2c[nH]c3ccccc23)C(=O)NC2CCCCC2C)CC1 (configuration not stated)	-0.3	10
NC(=O)c1ccc(-c2ccc(/C=C3\C(=O)ON=C3c3ccccc3)o2)cc1	·	34
CCn1c(NCc2ccc3c(c2)OCO3)nc2ccccc21	-2.1	-19
CC(OC(=O)c1ccccc1NC(=O)c1ccco1)C(=O)N1CCN(C(=O)c2ccco2)CC1 (configuration not stated)	·	6
CCOC(=O)N1CCC(NS(=O)(=O)c2ccccc2)CC1	-1.6	·
CC(C)(C)c1ccc(OC(=O)c2csnn2)cc1	-0.1	·

The listing (from the top)
SMILES	MgrA-DNA mod	Sa helicase inh
CC1CCC(C(=O)NC(Cc2c[nH]c3ccccc23)C(=O)NC2CCCCC2C)CC1 (configuration not stated)	-0.3	10
NC(=O)c1ccc(-c2ccc(/C=C3\C(=O)ON=C3c3ccccc3)o2)cc1	·	34
CCn1c(NCc2ccc3c(c2)OCO3)nc2ccccc21	-2.1	-19
CC(OC(=O)c1ccccc1NC(=O)c1ccco1)C(=O)N1CCN(C(=O)c2ccco2)CC1 (configuration not stated)	·	6
CCOC(=O)N1CCC(NS(=O)(=O)c2ccccc2)CC1	-1.6	·
CC(C)(C)c1ccc(OC(=O)c2csnn2)cc1	-0.1	·
COc1cc(-c2cc(C(=O)NN=C3CCN(C(C)=O)CC3)c3ccccc3n2)cc(OC)c1OC	·	-1
CCCCC(=O)NCc1ccccc1Cl	-0.3	12
NC1=NC(=O)C(Cc2cccc(Cl)c2)S1 (configuration not stated)	-0.5	7
Nc1cc(=O)n2c(n1)SCC2CS(=O)(=O)c1ccccc1 (configuration not stated)	0.6	0
Cc1nn(-c2ccccc2)nc1C(=O)N(C)CCc1ccccn1	-3.8	·
CC(=O)Nc1ccc(N/C(C)=C/C(=O)c2cccnc2)cc1	4.3	1
CCOC(=O)C1CC2CN(S(=O)(=O)c3ccc(C)cc3)CC(C1)C2=O (configuration not stated)	-3.6	·
O=C(O)CSc1ncnc2sc3c(c12)CCCC3	·	-5
COc1cc(/C=N/NC(N)=S)ccc1OC(=O)c1ccco1	·	-13
CC(=O)N(CCC(c1ccc(C)cc1)c1ccco1)Cc1cccs1 (configuration not stated)	18	6
COc1ccc(OCC(O)CNC(=O)Nc2ccc(OC(F)(F)F)cc2)cc1 (configuration not stated)	·	3
CCOC(=O)c1cc(C(N)=O)c(SC)[nH]c1=O	·	13
O=C(O)Cc1cn2ccsc2n1	-0.8	5
CC(=O)N1CCc2[nH]c3ccc(C)cc3c2C1	11	6
Cc1nnc(C)c2c(C)n(C(C)c3ccccc3)c(C)c12 (configuration not stated)	·	18
N#CCC1(C#N)CCCc2ccccc21 (configuration not stated)	-0.8	·
CC(CCc1ccco1)NC(=O)Cn1ncc2c(Cl)cccc21 (configuration not stated)	·	6
O=C(Cn1c(=O)c2cccn2c2ccccc21)NCc1ccccc1	-0.9	-2
C(=Nc1cnc2ccc3ccccc3c2c1)c1ccco1	0.7	-17
O=C1c2ccccc2-c2c1cccc2C(=O)N(CCO)CCO	2.2	-7
Cn1cccc1C(=O)c1cccc(Br)c1	-3.9	5
N#Cc1nc(N)nc(N(c2ccccc2)c2ccccc2)n1	·	7
CC1=CC=CC(=C(C2C(=O)N(C)C(=O)N(C)C2=O)C2C(=O)N(C)C(=O)N(C)C2=O)C1=O	5.5	15
Cc1[nH]c2ccccc2c1SCC(=O)Nc1nccs1	·	-17
CN(C)C1(CNCc2nc3ccccc3c(=O)[nH]2)CCCCC1	·	1
Cn1nc(-c2ccccc2)cc1NS(=O)(=O)c1ccc(C#N)cc1	·	-9
COc1cccc(CNS(=O)(=O)c2cc(OC)ccc2OC)c1	·	-10
CCOc1ccc(-c2nnc(Nc3ccc(OC)cc3)c3ccccc23)cc1	1.4	14
Cc1nnc(SCC(=O)NC(=O)c2cccn2C)n1Cc1ccccc1	·	-7
CCCc1cc(=O)oc2cc(O)ccc12	-2.6	·
CCNC(=O)c1ccc(CN2CCOCC2)cc1	-3.6	5
O=C1C2C3C=CC(CC3)C2C(=O)N1c1ccc(Cl)cc1[N+](=O)[O-] (configuration not stated)	0.7	·
N#Cc1cccc(NC(=O)COC(=O)CCc2ccc(S(=O)(=O)N3CCOCC3)cc2)c1	·	14
Nc1cccnc1Oc1ccc(F)cc1F	2.8	·
COc1ccccc1C1CCN(c2ccc(CO)cc2[N+](=O)[O-])CC1	-3.0	·
Cc1ccc(S(=O)(=O)N2C=Cc3ccccc3C2c2c[nH]c3ccccc23)c(C)c1 (configuration not stated)	1.5	8
Cc1cc(C)nc(NS(=O)(=O)c2ccc(NS(=O)(=O)c3ccccc3[N+](=O)[O-])cc2)n1	1.9	·
O=C(CO/N=C/c1ccccc1Cl)N1CCCCCC1	·	17
CCCC(c1nnnn1CC1CCCO1)N(Cc1cccs1)Cc1cc2ccc(C)c(C)c2[nH]c1=O (configuration not stated)	-1.2	9
NC(=O)c1c(NC(=O)CN2C(=O)S/C(=C\c3ccc(Cl)cc3Cl)C2=O)sc2c1CCCC2	-0.1	·
COc1ccc(C2=NN(CN3C(=O)C(=O)c4ccccc43)C(c3cccc([N+](=O)[O-])c3)C2)cc1 (configuration not stated)	-0.7	·
O=C(Nn1c(-c2ccc(F)cc2)nc2ccccc2c1=O)c1cc2cc(Br)ccc2oc1=O	0.4	·
O=C(NC1CCCC1)C(F)(F)C(F)(F)C(=O)NC1CCCC1	0.9	-13
O=C(c1cc(S(=O)(=O)N2CCCCC2)c[nH]1)N1CCCC1	0.7	5
Oc1ccc(C2N=C(c3ccccc3)NC(c3ccccc3)=N2)cc1	2.4	-6
Cn1c(CCCCC(=O)O)nc2ccccc21	6.3	17
O=C(Nc1nnc(CCS(=O)(=O)c2ccc(Cl)cc2)s1)c1ccc(Br)cc1	-0.4	·
Cc1ccc2[nH]c3nc4ccccc4nc3c2c1	·	9
Cc1n[nH]c(C)c1S(=O)(=O)N(C)C	·	-3
CC(OC(=O)c1cc(=O)c2ccccc2[nH]1)C(=O)Nc1ccccc1F (configuration not stated)	·	-9
O=C(CNc1cccc(C(F)(F)F)c1)N=Nc1c(O)[nH]c2ccccc12	·	-1
O=C(O)c1cccc(S(=O)(=O)N2CCN(c3ccccc3)CC2)c1	·	12
N=C(N=C(N)N)N1N=CCC1c1ccccc1 (configuration not stated)	0.3	-1
Cc1cc(OC(=O)N2CCOCC2)cc(C)c1Cl	-0.2	7
Further records
SMILES	MgrA-DNA mod	Sa helicase inh
Cc1ccc(SCc2cc(=O)[nH]c(Nc3nc4ccccc4o3)n2)cc1	-1.6	1
CCc1ccc(NC(=O)c2cc(C)[nH]n2)cc1	0.6	-8
CCC(=O)NCc1cc(-c2nn(C)c(=O)c3ccccc23)ccc1C	·	6
CCCCCCNc1nc(Oc2ccccc2)nc(Oc2ccccc2)n1	1.1	14
O=S(=O)(c1ccsc1)c1cccs1	·	6
CC1(C)CC(=O)C2=C(C1)Nc1ccccc1N(C(=O)Cc1ccc(Cl)cc1)C2c1cccs1 (configuration not stated)	-1.2	·
O=C(N/N=C/c1ccncc1)c1ccc(Cn2nnc(-c3ccccc3)n2)cc1	·	-3
Cc1occc1-c1nnc(SCc2ccc(C(C)(C)C)cc2)n1N	·	-3
O=C(/C=C1\Sc2ccccc2NC1=O)NCc1ccc2c(c1)OCO2	·	44
COc1ccc2cc(OC)ccc2c1	1.8	5
CC1CN(Cc2nnc(-c3ccccc3)o2)CC(C)O1 (configuration not stated)	·	11
c1cnn(-c2cncc(-n3cccn3)n2)c1	3.0	·
COC(=O)c1ccccc1NS(=O)(=O)c1c(C)nc2sccn2c1=O	-0.3	10
O=C(NC(c1ccccc1)c1ccccc1)C1COC2C=CC=CC2O1 (configuration not stated)	-3.5	5
COc1cccc(NC(=O)CSc2nnnn2C(C)C)c1	-3.3	5
CC(C)(C)C(=O)Nc1oc(-c2ccccc2)c(-c2ccccc2)c1C#N	·	-5
Cn1nc(C(=O)NCCCN2CCN(c3ccccc3)CC2)c2c1-c1ccccc1OC2	1.8	-12
CCOC(=O)C1=C[C@@H](OC(CC)CC)[C@H](NC(C)=O)[C@@H](N)C1	-0.3	·
COc1ccc(-c2cc(O)c3c(C)oc(C)c3c(=O)c2)cc1	11	-18
O=C(CN1C(=O)C2CC=CCC2C1=O)NCc1ccccc1F (configuration not stated)	·	30

Taken from above:
`c1cnn(-c2cncc(-n3cccn3)n2)c1` @ MgrA-DNA mod: 3.0
`Cc1occc1-c1nnc(SCc2ccc(C(C)(C)C)cc2)n1N` @ Sa helicase inh: -3

Following part.
SMILES	MgrA-DNA mod	Sa helicase inh
CC(C)N(CCc1ccncc1)C(=O)Nc1ccc(F)cc1	0.3	10
N#C/C(=C\Nc1cccc(C(F)(F)F)c1)c1nc(-c2cc3cc([N+](=O)[O-])ccc3oc2=O)cs1	2.4	·
O=C1/C(=C/c2ccc(Cl)cc2)SC(=Nc2ccccc2)N1N1CCOCC1	·	-8
Fc1ccc(CSc2nncn2NCc2ccc3c(c2)OCO3)cc1	-2.1	5
O=C(Nc1cccc(F)c1)c1ccccn1	·	-4
Cc1noc(C)c1CSc1ccc(S(=O)(=O)N(C)C)cn1	·	1
C=CCn1c(=S)sc2c(N(Cc3ccccc3)Cc3ccccc3)ncnc21	-0.5	·
CCOC(=O)c1cnc2cc(C)nn2c1-c1ccccc1	-3.0	15
CCC(=O)N1CCc2cc(S(=O)(=O)NC(C(=O)N3CCN(c4ccc(F)cc4)CC3)C(C)C)ccc21 (configuration not stated)	·	7
CNc1ccc(C2(O)C(=O)c3ccccc3C2=O)cc1	-2.4	-15
COC(=O)C1=C(N)c2c(F)cccc2C1(C#N)c1ccccc1 (configuration not stated)	-0.2	·
Cc1cccc(NC(=O)C(Cc2ccccc2)N2Cc3ccccc3C2=O)n1 (configuration not stated)	·	-13
O=C(C1CC2C=CC1C2)N1CCCc2ccccc21 (configuration not stated)	·	10
CNCC(=O)N1CCCC1	·	17
CSc1ccc(C(=O)Nc2sccc2C#N)cc1	·	10
CS/C(N)=N\N=C(/C)c1cc2ccccc2o1	·	2
Clc1cc(Cl)c(Cl)cc1Cl	0.8	·
Cc1ccsc1/C=N/c1sc2c(c1C#N)CCCC2	·	-10
CC1(C)CC2(CC(C)(C)NC(=O)N2)NC(=O)N1	-1.2	2
O=C(O)c1ccccc1C(=O)N1CCN(Cc2ccccc2)CC1	-2.8	-18
N#Cc1cc2c(nc1S(=O)(=O)Cc1ccccc1)CCCC2	4.8	1
Cc1ccc(NC(=O)CN(C)C(=O)CSc2nc3ccccc3c(=O)n2CCO)cc1	·	-3
O=c1oc2c(-c3cc(C(F)(F)F)ccc3Cl)cc(O)cc2s1	1.8	5
CSc1nsc(SC)c1C(=O)Nc1ccc(-c2csnn2)cc1	-1.6	·
CSc1ccccc1NC(=O)c1ccccc1	·	-4
COC(=O)CC1C(=O)NCCN1C(=O)CSc1nnc(Nc2ccc(OC)cc2)s1 (configuration not stated)	·	10
CCN1C(=O)NC(c2ccc(Cl)cc2)C(C(=O)OC)=C1C (configuration not stated)	-2.5	1
CCCCCCCCCCCCCCCC(=O)N[C@@H](COP(=O)(O)O)C(=O)O	-1.1	·
Cc1oc2ccc(OC(=O)N3CCOCC3)cc2c1C(=O)OC(C)C	·	10
CCC(C)C(=O)NCCc1ccccc1 (configuration not stated)	-1.9	-2
CCCNC(=O)Cn1cnc2sc(C(=O)N3CCC(Cc4ccccc4)CC3)c(C)c2c1=O	-1.1	2
N#Cc1c(NC(=O)CCn2cnc3ccccc3c2=O)oc(-c2ccccc2)c1-c1ccccc1	0.6	28
O=C(COc1ccc(Cl)cc1)NCCCN1CCN(c2ccccc2)CC1	-0.2	10
N#Cc1ccc(-c2ccccc2)nc1SC(C(=O)O)c1ccccc1 (configuration not stated)	·	-10
COC(=O)C1=Cc2cc(OC)ccc2OC1	2.4	·
COc1ccc(-c2ccc(C#N)c(Cl)n2)cc1	2.5	·
C=CCNC(=O)CSc1nc(=O)n2cc(C)ccc2n1	·	4
Oc1c(C(c2ccco2)N2CCOCC2)sc2ncnn12 (configuration not stated)	·	12
NNC(=S)NCCCN1CCOCC1	-0.5	·
Nc1c2c(=O)[nH]c(O)cc2nn1-c1ccccc1	2.3	·

Not a retest: an excerpt of the list.
SMILES	MgrA-DNA mod	Sa helicase inh
C=CCn1c(=S)sc2c(N(Cc3ccccc3)Cc3ccccc3)ncnc21	-0.5	·
CCOC(=O)c1cnc2cc(C)nn2c1-c1ccccc1	-3.0	15
CCC(=O)N1CCc2cc(S(=O)(=O)NC(C(=O)N3CCN(c4ccc(F)cc4)CC3)C(C)C)ccc21 (configuration not stated)	·	7
CNc1ccc(C2(O)C(=O)c3ccccc3C2=O)cc1	-2.4	-15
COC(=O)C1=C(N)c2c(F)cccc2C1(C#N)c1ccccc1 (configuration not stated)	-0.2	·
Cc1cccc(NC(=O)C(Cc2ccccc2)N2Cc3ccccc3C2=O)n1 (configuration not stated)	·	-13

Further entries follow:
SMILES	MgrA-DNA mod	Sa helicase inh
COc1ccc(CNC(=O)c2cnc(OC)cc2C(F)(F)F)c(OC)c1	·	-15
COc1ccc(-c2nc3ccccc3o2)cc1	1.6	8
O=C1NC(=O)/C(=C\c2cc(Br)ccc2OCc2ccc(F)cc2)S1	-0.2	·
Cc1oc(-c2ccc(Cl)cc2)cc1C(=O)O/N=C(\N)Cc1nc2cccnc2n1C1CC1	·	-36
CC(N)CCc1ccco1 (configuration not stated)	2.6	4
O=C(/C=C/c1ccccc1)Nc1ccc2[nH]c(=O)[nH]c2c1	-1.4	6
CCOC(=O)/C(C#N)=C/Nc1cc(C)no1	·	0
O=C(CSc1ncccn1)NC(=O)NCc1ccccc1	·	9
O=C(COC(=O)C1CCCCC1)Nc1ccc2c(c1)OCCO2	·	-9
CC1CN(C2=NCCN2S(=O)(=O)c2ccc(Cl)cc2)CC(C)O1 (configuration not stated)	0.7	·
Oc1ccc(-c2cn3c(n2)SCC3)cc1	-3.1	0

Three entries from above, with bars between the fields.
compound | MgrA-DNA mod | Sa helicase inh
COc1ccc(-c2nc3ccccc3o2)cc1 | 1.6 | 8
O=C1NC(=O)/C(=C\c2cc(Br)ccc2OCc2ccc(F)cc2)S1 | -0.2 | ·
Cc1oc(-c2ccc(Cl)cc2)cc1C(=O)O/N=C(\N)Cc1nc2cccnc2n1C1CC1 | · | -36
